# CtBP-E1A inh – blocks the CtBP interaction with E1A; AID 651724; AlphaScreen GST-E1A/His-CtBP binding, 1536-well; hits give low values; control for the full effect not named in the record; 0.49% of 340,000 active; activity change, % (concentration not given with the values); in the data active means activity change below about -65%; inconclusive means about -30% to -65%; inactive means above about -30%; also: % is scaled to controls: 0 for no effect and ±100 for the full control effect
#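 GST-E1A and His-tagged CtBP (125 nM each as 5X stock) were preincubated with pin-transferred compound for 2 h at 37 °C in the dark, then glutathione donor and nickel acceptor beads were added for 1 h before AlphaScreen reading.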
# D2 potentiator – positive allosteric modulators of human D2 dopamine receptor. P14416. DiscoveRx D2 beta-arrestin cells, luminescence, 90 min; 100% = 57 uM dopamine signal. potentiation, % (concentration not given with the values). 0.23% of 360,000 active; active = potentiation of 50% or more; inconclusive = 30% to 50%; inactive = 30% or less;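 also: compound concentration not given in the record; tested on top of an EC20 dose of dopamine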
# Target sequence (P14416 whole entry, looked up): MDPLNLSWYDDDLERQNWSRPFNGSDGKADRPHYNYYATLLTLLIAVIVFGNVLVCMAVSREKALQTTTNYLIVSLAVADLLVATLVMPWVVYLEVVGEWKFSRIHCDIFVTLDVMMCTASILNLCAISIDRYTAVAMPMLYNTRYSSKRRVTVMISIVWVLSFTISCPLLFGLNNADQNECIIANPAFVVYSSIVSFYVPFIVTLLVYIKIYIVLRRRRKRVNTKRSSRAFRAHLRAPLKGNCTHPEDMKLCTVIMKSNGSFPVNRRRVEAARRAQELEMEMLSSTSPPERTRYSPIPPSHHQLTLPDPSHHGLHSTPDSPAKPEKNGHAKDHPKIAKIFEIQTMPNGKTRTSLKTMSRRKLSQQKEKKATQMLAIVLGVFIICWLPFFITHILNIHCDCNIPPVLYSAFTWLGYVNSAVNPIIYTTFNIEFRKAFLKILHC
#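 PathHunter beta-arrestin assay in DiscoveRx D2 cells. Compounds were added with an EC20 of dopamine (50 nM final) for 90 min at 37 deg C. Luminescence was read 1 h after detection reagent, with 57 uM dopamine as the EC100 control.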
# Six1-Eya2 blk – inhibitors of human Six1/Eya2 interaction; Q15475+O00167; AlphaScreen GST-Six1/His-Eya2 binding, biochemical; hits give low values; control for the full effect not named in the record; activity change, % (concentration not given with the values); 0.56% of 360,000 active; AID 651725; in the data active = activity change below about -65%; inconclusive = about -30% to -65%; inactive = above about -30%; also: % is scaled to controls: 0 for no effect and ±100 for the full control effect
#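 AlphaScreen luminescence read after one hour at 37 °C in darkness. Pin-transferred compounds met GST-Six1 and His-Eya2 protein (5X stock 250 nM/500 nM) plus glutathione donor and Ni-chelate acceptor beads (5X, 50 ug/mL).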
# gsp ag – gsp mutant agonism | 0.13% of 340,000 active | Potency, µM (titrated, usually from 76.9 µM), without a hit: at the top dose activation (cAMP increase), usual class: activators | AID 624287 | gsp mutant cells, cAMP HTRF, 30 min; control for the full effect not named in the record; active = well fitted activation curve with a large enough effect; inconclusive = small, poorly fitted or top-dose-only effect, or another doubt; inactive = no such curve, though single readings can be large or run the other way; cell line not stated here;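 also: phosphodiesterase inhibitor Ro 20-1724 added with compounds to block cAMP breakdown; potency is read from the fitted curve at half-maximal effect; nearly all actives have a fitted effect of over 60% in size; about a fifth of the inactives were tested at one dose only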
#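 Cells stably selected in G418 were plated at 2000/well, grown 16-24 hr, then given compounds in DMSO with the PDE inhibitor […] (300 uM solution added) for 30 min at 37C; cAMP was read by HTRF.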
# gsp antagonist – antagonizes gsp, the McCune-Albright syndrome mutation; gsp-mutant cells, cAMP HTRF, 30 min; control for the full effect not named in the record; Potency, µM (top dose mostly 76.9 µM), for the others: at the highest dose activity change, negative = inhibition, hits mostly inhibitors; 0.4% of 340,000 active; AID 624288; active = falling curve of any shape with a large fitted effect; inconclusive = falling curve, mostly with a smaller effect; inactive = flat or rising curve; cell line not stated here;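 also: intracellular cAMP measured with PDE inhibitor Ro 20-1724 present during compound exposure; potency is read from the fitted curve at half-maximal effect; % is scaled to controls: 0 for no effect and ±100 for the full control effect; nearly all actives have a fitted effect of over 65% in size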
#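 Cells, 2000/well, grown 16–24 h in DMEM 10% FBS with 0.5 mg/ml G418, then compounds plus […] (300 uM addition stock), 30 min at 37C. cAMP read by HTRF (cAMP-d2 and anti-cAMP antibody-K in lysis buffer) after 30 min RT.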
# D2 agonist – activates the human D2 dopamine receptor; P14416; DiscoveRx PathHunter D2 beta-arrestin, luminescence, 90 min; 100% = 57 uM dopamine signal; activation, % (test concentration not listed); 0.084% of 360,000 active; in the data active = activation above about 40%; inconclusive = about 15% to 40%; inactive = below about 15%; also: compound concentration not given in the record; the text of the record calls up to 30% inactive
#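 Agonist mode: compounds alone added to overnight-plated D2 PathHunter cells for 90 min at 37 C, with 57 uM final dopamine (EC100) defining full response. Beta-arrestin recruitment detected by chemiluminescent reagent, read after 1 h at ambient temperature.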
# An asterisk follows results filed as active; u = inconclusive; x = no result given; [ ] = dose if it differs, or a comment.
mol,CtBP-E1A inh,D2 potentiator,Six1-Eya2 blk,gsp ag,gsp antagonist,D2 agonist
CC1Cc2ccccc2N1CC(=O)NC(=O)NCc1ccco1 (configuration not stated),-7.8,-6.4,-2.3,25.2%,1.3%,-0.5
COC(=O)c1ccc(COc2ccccc2/C=N/NS(=O)(=O)c2ccccc2)cc1,-6.3,-15.0,-12.7,u,-12.2%,-6.5
Cc1cc2nc(-c3ccc(=O)[nH]c3)n(Cc3ccccc3)c2cc1C,x,-22.1,-3.4,-19.0%,-23.3%,5.3
O=[N+]([O-])c1ccc(COc2cccc(CNc3ccc(Br)cc3)c2)cc1,-26.8,-3.3,u,-9.6%[15.4 µM],16.3%,0.4
O=C(/C=C/c1ccccc1)N/C(=C/c1ccccc1)C(=O)Nc1ccc(C(=O)O)cc1,0.4,-4.5,-3.6,0.8%[15.4 µM],5.2%,-16.7
COc1ccc(NC(=O)N2CCc3ccccc3C2)cc1OC,4.5,-35.0,-6.7,26.6%,-3.1%,-3.6
COc1ccc(COC(=O)C2=C(C)NC(=O)NC2c2cc(OC)ccc2OC)cc1 (configuration not stated),-6.0,1.5,1.0,9.9%,-19.1%,-5.5
O=C(NC1=NCCS1)c1ccc(Cl)c(Cl)c1,-0.1,-7.5,3.4,-49.1%[inhibitor],-9.1%,-0.8
CC(C)(C)Nc1nc(-c2ccccn2)nc2ccccc12,x,-56.7,-89.4*,-23.4%,-6.2%,-11.0
CCCCC1CC(/C(C)=N/NC(N)=O)OC1=O (configuration not stated),3.7,-0.2,10.3,6.0%,6.2%,-1.1
COC(=O)Cc1c(C)c2ccc(OC(C)C)cc2oc1=O,6.4,1.2,2.8,-43.0%[inhibitor],-4.9%,0.0
CCOc1ccc(-n2nc3cc(C)c(N)cc3n2)cc1,x,8.6,6.2,25.3%,7.7%,1.7
O=C(COc1ccccc1)NNc1c2ccccc2nc2ccccc12,u,-4.5,-29.5,-50.6%[inhibitor],39.8µM*,-4.1
CCn1c(=O)c(C(=O)CC#N)c(N)n(Cc2ccccc2)c1=O,3.7,-5.3,6.2,-13.9%,-6.5%,-0.4
Cc1ccc(C)c(Cn2nnc3c(=O)[nH]c(C4CCN(C(=O)c5cccs5)CC4)nc32)c1,-18.3,-10.1,-20.1,5.7%,23.1%,-1.9
CCN(CC)S(=O)(=O)c1ccc(C)c(NC(=O)CN2CCN(Cc3ccccc3)CC2)c1,7.2,-13.8,-5.1,-1.1%,-11.6%,-0.6
Cc1ccc(N2CC(C(=O)N(C)CC(=O)Nc3ccc(Cl)c(C(F)(F)F)c3)CC2=O)cc1 (configuration not stated),1.4,-16.7,-0.8,-11.6%,-31.6%,-1.6
CCOc1cc(-c2cn(S(=O)(=O)c3cccc4nsnc34)nc2N)cc(OCC)c1OCC,-25.6,-11.0,u,-4.9%,-8.3%,-2.4
Cc1ccc(/C=N/NC(=O)c2nn(C)cc2Cl)cc1,-5.4,-2.5,3.9,-6.3%[15.4 µM],6.7%,4.2
COc1ccc(S(=O)(=O)N(C)CC(=O)NCc2cccnc2)cc1Cl,1.0,-9.5,-6.9,u,2.7%,-2.6
CC(NC(=O)c1ccc2c(=O)n3c(nc2c1)CCCCC3)c1ccccc1 (configuration not stated),-2.5,2.5,1.6,11.9%[15.4 µM],-14.4%,4.3
Cc1onc(-c2ccccc2)c1C(=O)NC1CCCCC1C (configuration not stated),5.6,-6.9,0.1,-46.3%[inhibitor],x,-2.3
Cc1noc(C)c1CSc1nnc2ccc3ccccc3n12,-0.7,-11.8,0.0,34.7%,4.8%,-4.4
CCc1cccc2c(SC(C)C(=O)NCC3CCCO3)nc(-c3ccccc3)nc12 (configuration not stated),7.6,0.9,6.0,-6.2%,0.4%,-1.8
Nn1c(Cc2cccc3ccccc23)nnc1SCc1c(F)cccc1Cl,3.5,-2.5,-5.8,14.3%[15.4 µM],-1.1%,-1.8
COc1cc(-c2nnc(SCC(=O)c3ccc(C)cc3)o2)cc(OC)c1OC,0.0,-7.3,-8.9,-40.1%[inhibitor],-12.6%,0.0
COc1ccc(C2CC(=O)N3CN(Cc4ccco4)CSC3=C2C#N)cc1 (configuration not stated),-1.8,6.9,-1.5,-30.4%[inhibitor],-14.4%,-1.6
O=C(NCc1ccco1)c1ccc2c(c1)N(Cc1ccccc1)C(=O)CS2,-7.5,-2.5,-4.9,u,u,-1.2
CCN(CC)S(=O)(=O)c1ccc(N2CCCC2)c(NC(=O)c2ccc([N+](=O)[O-])o2)c1,-8.6,u,-18.1,10.9%[15.4 µM],-0.4%,1.4
OCCOc1nnnn1-c1ccccc1,0.9,1.6,6.4,5.1%,9.5%,-1.5

# Complete entries as entered above. Screens in order: CtBP-E1A inh, D2 potentiator, Six1-Eya2 blk, gsp ag, gsp antagonist, D2 agonist
# Listed for `CCCCC1CC(/C(C)=N/NC(N)=O)OC1=O` (configuration not stated) : 3.7, -0.2, 10.3, 6.0%, 6.2%, -1.1
# Listed for `CCN(CC)S(=O)(=O)c1ccc(N2CCCC2)c(NC(=O)c2ccc([N+](=O)[O-])o2)c1` : -8.6, u, -18.1, 10.9%[15.4 µM], -0.4%, 1.4

# Additional records
mol,CtBP-E1A inh,D2 potentiator,Six1-Eya2 blk,gsp ag,gsp antagonist,D2 agonist
COCc1cc(N2CCCCC2)nc(-c2ccccc2)n1,15.7,-1.9,9.7,6.3%[15.4 µM],-2.4%,-2.3
Cc1cc(=O)[nH]c(N2CCCNCC2)n1,-4.2,4.7,1.4,-21.4%,11.1%,-3.3
N#Cc1nc(COc2ccc(F)cc2)oc1NCCCn1ccnc1,-2.6,-17.7,-4.3,-44.1%[inhibitor],6.9%,-2.4
CC(C)c1ccccc1NC(=O)Cn1c(/C=C/c2ccccc2)nc2ccccc21,7.1,-8.3,5.3,-0.7%[15.4 µM],15.7%,-1.9
Cc1ccsc1CN1CCC(C(=O)NCc2ccccc2Cl)CC1,-13.4,-27.6,2.7,19.7%,-11.8%,-2.0
C#CCSc1nc(-c2cccs2)ccc1C#N,6.2,9.0,33.6,u,-8.8%,0.7
N#CCSc1nc2ccccc2c(=O)n1CCC(=O)NCCc1ccccc1,-5.2,2.0,2.9,4.2%,-2.3%,-0.9
COCCCn1cc(C(=O)c2ccccc2OCC(=O)Nc2cccc(F)c2)cc(C#N)c1=O,11.3,13.9,9.3,-4.9%,-16.8%,6.7
COc1cc(C(=O)Nc2nc(-c3cccs3)cs2)cc(OC)c1OC,7.2,-22.5,-2.4,-5.3%,5.3%,2.6
Cc1cc(SCc2ccc(C(F)(F)F)cc2)nc(=O)[nH]1,x,-3.2,0.4,-0.7%,8.0%,-2.0
COc1ccc(Cl)cc1NC(=O)CN(C)C(=O)Cn1[nH]c(=O)c2ccccc2c1=O,-2.7,-3.3,-1.2,2.1%,-1.3%,-2.2
CCN(C[C@H]1N[C@@](Cc2ccccc2)(C(=O)OC)[C@H]2C(=O)N(Cc3ccccc3)C(=O)[C@@H]12)S(=O)(=O)c1ccc(C(F)(F)F)cc1,-0.3,18.0,-0.7,x,-19.3%,5.5
Cc1ccc(S(=O)(=O)N(C)CC(=O)N2CCCc3ccccc32)cc1,0.0,-10.3,1.5,13.8%,-13.0%,-1.0
CC1(C)Cc2nc3sc4c(=O)n(CC(N)=O)cnc4c3cc2CO1,4.0,6.1,-4.3,3.8%,-1.3%,-0.6
OCCNCc1cc(Br)ccc1OCc1ccc(F)cc1,-6.0,-15.8,2.9,-2.6%,11.0%,-0.4
COC(=O)c1sc2nc(C)nc(SCC(=O)Nc3sccc3C(N)=O)c2c1C,x,-12.7,2.7,0.0%,-25.1%,0.9
CC(=O)Nc1ccc(S(=O)(=O)N2CCC(C(=O)c3ccc(F)cc3)CC2)cc1,0.1,-3.4,-8.5,-1.3%,-12.6%,0.4
OC(c1cc(C(F)(F)F)nc2c(Cl)cc(Cl)cc12)C1CCCCN1 (configuration not stated),23.3,5.4,21.6,u,2.1%,5.9
C=CCCCCCCCCC(=O)Nc1ncccn1,2.3,-5.9,-2.4,3.4%,4.7%,-4.7
CC(OC(=O)c1nn(C)c(=O)c2ccccc12)C(=O)Nc1ccc(S(N)(=O)=O)cc1 (configuration not stated),-1.3,-7.7,-7.1,-2.4%,-4.5%,-2.2
O=C(CSc1nc2cc(Cl)ccc2s1)NCC1CCCO1 (configuration not stated),-2.6,-28.0,-5.5,7.9%[15.4 µM],2.1%,-1.2
Cc1ccccc1CNC(=O)c1ccccc1N,9.7,-12.8,-1.2,6.0%,8.8%,-1.9
COc1cc(OC)c2c(-c3cccc(-c4ccc(C(C)=O)cc4)c3)cc(=O)oc2c1,-5.5,x,-5.9,x,6.0%,-1.5
CCN=C1SC(C(=O)Nc2cccc(Br)c2)CC(=O)N1CC (configuration not stated),2.7,-25.5,2.9,-31.0%[inhibitor],-3.9%,-1.4
Cc1ccccc1CS(=O)(=O)CCC(=O)NCCN1CCN(c2cccc(Cl)c2)CC1,-17.4,-36.9,2.6,2.9%,-14.1%,1.1
CC1=CC(C)C2(COC(c3ccc[n+](C)c3)OC2)C(C)C1 (configuration not stated),x,-4.7,3.6,-123.1%[inhibitor],9.4%,-3.9
CCc1ccccc1N(CC(=O)NC(C)(C)CC)C(=O)CCC(=O)Nc1nccs1,0.6,-1.7,2.7,-2.4%,-3.7%,-5.9
C=CCn1nc([N+](=O)[O-])nc1Sc1cccc2cccnc12,-95.3*,11.2,-94.4*,8.6%,17.0%,-0.9
Cc1ccc(C(C)C)c(OCCCN2CC(C)OC(C)C2)c1 (configuration not stated),8.5,-20.3,-1.6,-11.1%,6.4%,-5.3
NC1=NC2CS(=O)(=O)CC2S1 (configuration not stated),0.7,-10.4,7.3,-0.2%,8.8%,-3.6
COc1ccc(S(=O)(=O)N(CC(=O)NN=C2CCN(C)CC2)c2ccc(C)cc2)cc1OC,-5.3,-18.7,5.8,-1.1%[15.4 µM],-12.7%,-5.3
Cc1ccc(OCC(=O)N2CCCc3ccccc32)cc1,4.1,-18.6,-16.2,-21.2%,-0.8%,-1.9
O=C(COC(=O)CCSc1ccccc1)Nc1ccccc1,x,1.9,-0.9,18.6%,2.0%,0.5
CCc1nc2ccccc2c(NC(=O)CN2CC(C)CC(C)C2)c1C (configuration not stated),-0.5,-8.1,1.0,-25.7%,-2.1%,-0.9
CCc1cc2c(=O)c(-c3nc4ccccc4n3C)coc2c(CN2CCCCC2)c1O,5.6,3.2,1.9,25.4%,-2.7%,0.1
CC1(C)Cc2c(cnn2-c2ccc(F)cc2)C(NC(=O)CCC(F)(F)F)C1 (configuration not stated),-0.2,-30.9,-2.4,3.7%[15.4 µM],-0.5%,1.4
CCc1ccc(NC(=O)CCS(=O)(=O)c2cccc3nsnc23)cc1,-1.6,0.3,-1.9,12.0%,-1.4%,-2.7
